# Hsc70 ATP site: Hsc70 inhibitors, probe displacement, primary screen, biochemical, fluorescence polarization (AID 568); Hsc70 fluorescence polarization, probe displacement; higher % means a stronger effect; strong numbers were not always called active; displacement, % at 20 µM; hits with a dose series show IC50 in µM; 83,000 tested, under 10 active;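 active means displacement above 50% without optical interference and an IC50 on retest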;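 further: ATPase domain with a fluorescein-tagged ATP probe; 0% = vehicle and 100% = excess ADP; read after one hour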
# MT1-MMP reporter: MT1-MMP gene expression reporter suppression – cell-based, luciferase reporter, luminescence (AID 618). MT1-MMP promoter luciferase reporter cells, luminescence. 0.62% of 87,000 active. calls from a first round at 10 µM; hits with a dose series show EC50 in µM;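 active means over half of the reporter light lost at 10 µM or EC50 under 50 µM; inactive means the rest and hits that failed the dose series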;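 further: actives suppress MT1-MMP promoter-driven transcription so potencies describe inhibitors; HT1080 fibrosarcoma cells; overnight exposure; toxic or luciferase-blocking compounds were not removed from the actives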
# WNV NS2B-NS3 inh: blocks West Nile virus NS2B-NS3 protease activity | WNV NS2B-NS3 protease, fluorogenic substrate Ex360/Em465; stronger effect = lower value | P06935 | z-score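 (tested at a level between 10 and 100 µM)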 | 0.18% of 65,000 active;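 active means z-score at -3 or under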;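 further: score is relative to mean and spread of the compound wells of a plate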
# Target sequence (P06935 1371-1501 limits assumed): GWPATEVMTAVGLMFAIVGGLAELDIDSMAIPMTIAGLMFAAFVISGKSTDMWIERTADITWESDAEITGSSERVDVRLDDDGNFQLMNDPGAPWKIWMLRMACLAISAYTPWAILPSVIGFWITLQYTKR
# Target sequence (P06935 1502-1679 limits assumed): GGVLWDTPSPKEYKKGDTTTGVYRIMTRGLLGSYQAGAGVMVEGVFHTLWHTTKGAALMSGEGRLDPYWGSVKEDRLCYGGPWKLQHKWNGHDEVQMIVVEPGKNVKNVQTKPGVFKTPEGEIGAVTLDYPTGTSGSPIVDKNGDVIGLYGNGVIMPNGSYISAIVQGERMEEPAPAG
# * = called active by the depositor; i = inactive; . = not tested or not shown; + = active, no number.
Structure | Hsc70 ATP site | WNV NS2B-NS3 inh | MT1-MMP reporter
Cc1cc(C(F)(F)F)nn1CC(=O)Nc1cccnc1 | -2.1% | 0.21 | i
CC(C)OCCCNC(=O)Cn1nc(-c2ccccc2)ccc1=O | 1.2% | 1.5 | i
COCCCn1c(SCC(=O)Nc2ccc(C(C)=O)cc2)nc2ccccc2c1=O | -4.1% | -0.07 | i
CCOc1cc(N2CCOCC2)c(OCC)cc1NC1=NCCCCC1 | 5.2% | -1.4 | i
Cc1c(C(=O)OCc2ccccc2)nnn1-c1nonc1N | 4.2% | -0.25 | i
COC(=O)c1ccc(-c2sc3nc(N4CCOCC4)c4c(c3c2N)CCCC4)o1 | -89% | 0.5 | i
CCCCC(=O)Nc1cc(NC(=O)CC)ccc1Cl | 1.3% | . | i
O=c1[nH]c(=O)n(C2CCCCCC2)c(O)c1C=NCc1ccc(F)cc1 | -2.5% | -0.74 | i
O=C(OC(C(=O)NCc1ccc2c(c1)OCO2)c1ccccc1F)c1ccco1 (stereo not given) | 2.3% | -1.3 | i
O=C(Nc1ccccc1)c1cccnc1Nc1ccccc1 | -2.8% | 0.42 | i
Cc1cccc(OCC(=O)O/N=C(\N)Cc2ccc(Cl)cc2)c1 | -1.2% | . | i
CC(=O)c1ccc(NC(=O)CCc2c(C)nc3ncnn3c2C)cc1 | 4.6% | -0.9 | i
CCOc1ccc(NS(=O)(=O)c2ccc3[nH]c(=O)oc3c2)cc1 | 0.9% | -0.6 | i
Cc1noc(C)c1C(=O)OCC(=O)/C=C1\N(C)c2ccccc2C1(C)C | -4.6% | -0.81 | i
Clc1c(-c2nnc3n2CCCCC3)sc2ccccc12 | 5.3% | -0.29 | i
CCCOc1ccc(CC(=O)NCc2ccco2)cc1OC | 3.3% | -0.92 | i
O=C(NCc1ccco1)C1Cc2ccccc2CN1S(=O)(=O)c1ccccc1F (stereo not given) | -2.8% | -1.3 | i
COc1ccc(CN(C)CC(=O)c2c(N)n(Cc3ccccc3)c(=O)n(C)c2=O)c(OC)c1 | 5.5% | -0.8 | i
Cc1nnc(SC(C)C(=O)N2CCc3ccccc32)s1 (stereo not given) | -1.2% | . | i
CC1=C(C)C(=O)N(c2ccc(C(=O)O)cc2)C1=O | -0.8% | 1.2 | i
CCc1cccc(NC(=O)CSCc2cc(=O)[nH][nH]2)c1 | 6.3% | . | i
Cc1cc2oc(=O)cc(C)c2cc1NC(=O)CCC(=O)O | 1.6% | -0.71 | i
Cc1ccc(S(=O)(=O)N2CCCC(C(=O)NCC3COCCO3)C2)cc1 (stereo not given) | -0.8% | -0.32 | i
C=CCn1c(SCc2nc3ccccc3[nH]2)nnc1-c1ccccn1 | -5.8% | -1.6 | i
CCOc1ccc(-c2nnc(NC(=O)CCCOc3cccc(C)c3)o2)cc1 | -4.3% | 2.3 | i
COc1ccc(N2CCN(S(=O)(=O)c3cccc4cccnc34)CC2)cc1 | -1.2% | 1.5 | i
O=C1C/C(=C/NCc2ccccc2)C(=O)N1 | 0.2% | -0.1 | i
CC(=O)N1c2ccccc2C(=O)C1N1CCCCC1 (stereo not given) | 5.9% | -1.1 | i
CC1/C(=N/O)CC(c2ccccc2)NC1c1ccccc1 (stereo not given) | -1.8% | . | i
COc1ccc(-c2c(C#N)c(SCC(N)=O)nc3c2CCCC3)cc1 | 4.4% | . | i
Cn1cnc(S(=O)(=O)NCc2cccs2)c1 | -0.2% | -0.42 | i
CCC(=O)Nc1nnc(C(C)(C)C)s1 | 0.7% | . | i
CC(C)C1C(C#N)=C(N)Oc2n[nH]c(-c3cccs3)c21 (stereo not given) | 9.6% | 0.25 | i
COC(=O)CN1C(=O)C(O)(CC(=O)c2ccc(Br)cc2)c2ccccc21 (stereo not given) | 2.8% | -0.27 | i
O=C(O)C1C2C=CC3(CN(Cc4ccco4)C(=O)C13)O2 (stereo not given) | -5.0% | 0.4 | i
COc1cccc(N2C(=O)C3C(C2=O)C2C=CC3C23CC3)c1 (stereo not given) | 2.8% | -0.77 | i
COc1ccccc1Oc1c(C)oc2cc(OC(=O)c3ccco3)ccc2c1=O | 3.2% | 0.03 | i
CCCCC(c1nnnn1CC1CCCO1)N1CCN(c2nc3ccccc3s2)CC1 (stereo not given) | -0.7% | 0.79 | i
CNCCCc1[nH]nc(N)c1C#N | 7.8% | -1.2 | i
O=C(O)C1CCCCC1C(=O)N1CC=C(c2ccccc2)CC1 (stereo not given) | -2.3% | 1.4 | i
CN1CCN(CCCn2cnc3c(=O)oc4ccccc4c32)CC1 | 0.3% | 0.67 | i
CCOC(=O)C1=C(C)NC(C)=C(C(=O)OCC)C1C(=O)OCC(=O)N1CCCCC1CC (stereo not given) | -2.8% | -0.17 | i
Cc1nn(CCC(=O)NNC(=S)Nc2ccc(Cl)cc2)c(C)c1[N+](=O)[O-] | 3.4% | . | i
Cc1ccc(S(=O)(=O)Nc2cc(C(=O)NCCN(C)C)ccc2N2CCCCC2)cc1 | -0.9% | -0.17 | i
Cc1ccc(-c2noc(CCC(=O)Nc3ccc(C)cn3)n2)cc1 | 4.4% | 1.5 | i
COc1ccccc1/C=C/C1(C(=O)NC2CCCC2)CC(=O)N1c1ccc(C)cc1 (stereo not given) | 0.7% | . | i
CC1CCN(C(=O)CSCC(=O)Nc2nc(-c3cccs3)cs2)CC1 | 4.9% | -0.79 | i
CCOC(=O)c1cc2c(=O)n3ccccc3nc2n(C(C)C)c1=NC(=O)c1ccncc1 | 0.0% | 1.2 | i
COc1ccc(N2CCN(C(=O)c3ccc(OCc4c(C)noc4C)c(OC)c3)CC2)cc1 | 6.2% | . | i
Nc1nonc1-c1nc2ccccc2n1CC(=O)N1CCCCC1 | -8.0% | 0.43 | i
Cc1ccccc1CN1CCN(S(=O)(=O)c2ccc(F)cc2)CC1 | 4.9% | 1.5 | i
CC(=O)Nc1cccc(NC(=O)C2CCCN2C(=O)Nc2ccc(Cl)cc2)c1 (stereo not given) | 6.9% | 0.43 | i
COCCOC(=O)C1=C(C)NC2=C(C(=O)CC(C)(C)C2)C1c1ccc(N(C)C)cc1 (stereo not given) | -1.6% | -0.78 | i
CC(C)CC(=O)N1CCN(S(=O)(=O)c2ccc3ccccc3c2)CC1 | 5.9% | . | i
O=C(CCSc1nc2ccccc2o1)N1CCOCC1 | -4.9% | -0.18 | i
CC1Cc2ccccc2N1C(=O)c1cnc2n(c1=O)CCS2 (stereo not given) | 0.9% | 0.5 | i
O=C(Nc1cccc(Cl)c1)N(CCN1CCOCC1)Cc1cccc(Cl)c1 | -6.2% | 1.1 | i
CC(=O)c1c(C)[nH]c(C(=O)CSc2nc3ccc(C)cc3[nH]2)c1C | -2.7% | . | i
CC[N+](CC)(CCO)CCCN1C(=O)C2CC=C(Cl)CC2C1=O (stereo not given) | -6.0% | -1.1 | i
Cc1cccc(NC(=O)c2cc(-c3ccco3)nc3ccccc23)n1 | 2.8% | -0.84 | i

# In the list so far, these contain two or more sulfur atoms:
Structure | Hsc70 ATP site | WNV NS2B-NS3 inh | MT1-MMP reporter
Cc1nnc(SC(C)C(=O)N2CCc3ccccc32)s1 (stereo not given) | -1.2% | . | i
Cn1cnc(S(=O)(=O)NCc2cccs2)c1 | -0.2% | -0.42 | i
CC1CCN(C(=O)CSCC(=O)Nc2nc(-c3cccs3)cs2)CC1 | 4.9% | -0.79 | i

# The list continues.
Structure | Hsc70 ATP site | WNV NS2B-NS3 inh | MT1-MMP reporter
O=C(O)C1CCCCC1C(=O)Nc1ccccc1Nc1ccccc1 (stereo not given) | 3.1% | -0.39 | i
O=C(O)C1Sc2[nH]c(=O)sc2C2c3cc(Cl)ccc3OC(=O)C12 (stereo not given) | 1.7% | 0.65 | i
COC(=O)CCC(NC(=O)OCc1ccccc1)C(=O)NC(CC(C)C)C(=O)OC (stereo not given) | -3.0% | -0.38 | i
COc1ccc(N(CC(=O)Nc2cccc(OC)c2)S(=O)(=O)c2c(C)nn(C)c2C)cc1 | -0.6% | 1.3 | i
O=C1CCCN1c1ccc(S(=O)(=O)N2CCN(c3ccccn3)CC2)cc1 | 10% | -0.64 | i
CCOP(=O)(OCC)c1nc(/C=C/c2ccccc2)oc1NCc1ccccc1 | -1.5% | . | i
C=CCN(C(=O)CCC(=O)Nc1cc(C)on1)C(C(=O)NC(C)(C)C)c1cccc(OC)c1OC (stereo not given) | 1.9% | -1 | i
Cn1ncc2c(Nc3ccc4ccccc4c3)ncnc21 | 0.1% | 0.57 | i
O=C(Cc1cccs1)NCc1ccc2c(c1)OCO2 | 1.8% | -0.05 | i
CC(C)NC(=O)c1ccc(-c2ccccc2C(F)(F)F)o1 | -5.1% | -0.48 | i
Cc1cc(C(=O)CNCc2ccco2)c(C)n1-c1ccc(F)cc1 | -1.7% | 0.44 | i
COCc1nc2ccccc2n1Cc1ccc(Br)cc1 | 5.9% | -1.2 | i
CCOC(=O)C1=C(C)NC(=O)NC1c1ccc(OCC(=O)OC)c(OC)c1 (stereo not given) | -7.0% | 1.5 | i
CCN=C1S/C(=C\c2cn(C(C)=O)nc2-c2ccccc2)C(=O)N1CC | 1.5% | . | i
COCCN1Cc2cccc(C(=O)Nc3cccc(OC)c3)c2C1=O | -4.6% | -0.71 | i
COc1cc(/C=N/O)ccc1OCc1ccc(C(=O)O)cc1 | -0.4% | 0.2 | +
Cc1c(C(=O)NCCC2=CCCCC2)oc2ccc(S(=O)(=O)N3CCC4(CC3)OCCO4)cc12 | 1.9% | -0.33 | i
CC1CCCCN1CCn1cnc2c([nH]c3ccccc32)c1=O (stereo not given) | 0.7% | -0.37 | i
CCCCCn1c(C(C)NC(=O)CCC)nc2ccccc21 (stereo not given) | 5.4% | -0.03 | i
COc1cc2nc(CN3C(=O)c4ccccc4C3=O)oc(=O)c2cc1OC | 1.4% | 1.2 | i
COc1ccc(NS(=O)(=O)c2ccc(NC(C)=O)cc2)cc1OC | 1.4% | 0.6 | i
O=C(CSc1ccc2nnc(-c3ccccn3)n2n1)Nc1ccc2c(c1)OCO2 | 2.9% | 1.1 | i
Cc1cccc(-c2noc(Cc3ccccc3)n2)c1 | -1.6% | 2.7 | i
CCNC(=O)CP(=O)(c1ccccc1)c1ccccc1 | 3.8% | -0.4 | i
CC(C)(C)OC(=O)NCCc1nnc(SCC(=O)c2ccc(Cl)cc2)o1 | 1.4% | 0.3 | i
N#Cc1c(N)sc(=S)c2c1CCCC2 | 17% | -1.6 | i
Cc1ccccc1NC(=O)N1CCCC(c2nc(-c3ccc(C(C)C)cc3)no2)C1 (stereo not given) | 2.2% | -0.33 | i
COc1ccc(C(=O)NCc2cccnc2)cc1OC | -3.9% | -0.6 | i
Cc1cc(SCC(=O)c2ccccc2)n2nc(C)nc2n1 | -1.8% | 1.1 | i
CCOC(=O)N1CCC(NC(=O)C2CCN(S(=O)(=O)c3cnc[nH]3)CC2)CC1 | -2.2% | -1.3 | i
O=C(NCc1cccnc1)C1CC(=O)N(c2ccc(F)cc2)C1 (stereo not given) | 1.0% | -0.63 | i
CCC(=O)N1CCc2cc(S(=O)(=O)CCC(=O)NCCC3=CCCCC3)ccc21 | -2.6% | 0.1 | i
COC(=O)c1ccccc1OC(=O)c1cccnc1 | -5.4% | . | i
CCn1c(=O)cc(OCC(=O)NCCC(C)C)c2ccccc21 | 9.6% | 1.5 | i
Cc1cc(C)nc(N(C#N)CC(=O)N(c2ccccc2)C(C)C)n1 | -7.7% | 0.53 | i
Cc1nc(NC2=NCN(CC3CCCO3)CN2)nc2ccccc12 (stereo not given) | -0.6% | -0.06 | i
Cc1cc(C)n2c(SC/C(O)=C(\C#N)c3nc4ccccc4[nH]3)nnc2n1 | -8.7% | 0.64 | i
O=C(NCc1ccccn1)c1cc2n(n1)C(C(F)(F)F)CC(c1ccco1)N2 (stereo not given) | -0.7% | 0.07 | i
COc1ccc(OC)c(C2=Nn3c(nnc3-c3ccco3)SC2)c1 | -0.6% | 0.56 | i
CCCCOc1ccc(C(C)NC(=O)C2CCCN(S(=O)(=O)CC)C2)cc1 (stereo not given) | -4.4% | -0.43 | i
CC(NC(=O)C12CC3CC(CC(C3)C1)C2)C(=O)NCCN(C)C (stereo not given) | -4.4% | -1 | i
Cn1cccc1C(=O)OCc1csc(-c2ccccc2)n1 | -4.1% | 0.96 | i
CCOC(=O)C1=C2SCCN2C(=O)C(C#N)C1(C)C (stereo not given) | 4.9% | -0.53 | i
Cc1ccc(-c2nc(CS(=O)CC(=O)NC3CCCC3)c(C)o2)cc1 (stereo not given) | -2.9% | -0.57 | i
O=C(c1cccc(Cl)c1)N1CCCC(C(=O)N2CCCCCC2)C1 (stereo not given) | -1.3% | 0.07 | i
Cc1cc(S(=O)(=O)NCC(=O)O)ccc1F | -3.4% | -0.37 | i
COc1ccc(S(=O)(=O)N2CCC(C(=O)N3CCc4ccccc4C3)CC2)cc1 | -1.0% | -0.25 | i
Cc1cc2ccccc2c(=O)[nH]1 | -1.0% | 0.03 | i
O=C1C2ON(c3ccc(Br)cc3)C(c3cccnc3)C2C(=O)N1C1CCCCC1 (stereo not given) | -0.6% | 0.12 | i
Cn1c(COc2ccccc2)nnc1SCC(=O)Nc1ccc(S(N)(=O)=O)cc1 | 7.0% | . | i

# Some of the compounds tested; count on the stated rates, not on these rows.
